IP6K1 inhibitor: blocks human inositol hexakisphosphate kinase 1; activity change, % (series mostly up to about 58 µM); Q92551; 0.81% of 140,000 active; AID 1645851; IP6K1 kinase, ADP-Glo luminescence, 2 h; active compounds read low; in the data active means activity change below about -25%
Target sequence (Q92551 whole entry, looked up): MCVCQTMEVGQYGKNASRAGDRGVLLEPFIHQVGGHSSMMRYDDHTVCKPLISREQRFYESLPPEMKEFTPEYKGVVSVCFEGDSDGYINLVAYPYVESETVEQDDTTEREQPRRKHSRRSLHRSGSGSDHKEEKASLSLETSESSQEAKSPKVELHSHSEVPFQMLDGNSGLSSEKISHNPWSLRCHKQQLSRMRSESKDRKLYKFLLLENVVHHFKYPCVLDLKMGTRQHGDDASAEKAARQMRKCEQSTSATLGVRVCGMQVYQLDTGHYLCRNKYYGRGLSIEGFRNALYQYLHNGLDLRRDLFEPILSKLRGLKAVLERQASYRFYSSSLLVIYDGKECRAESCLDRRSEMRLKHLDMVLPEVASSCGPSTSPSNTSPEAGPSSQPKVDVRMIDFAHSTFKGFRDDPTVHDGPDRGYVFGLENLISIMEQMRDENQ
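ADP-Glo luminescence measures ADP made by human IP6K1 during a 2 h RT reaction with ATP/IP6 (mix at 1.3 mM/130 uM); top library doses 57.5 and 19.1 uM final.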
SNCA viab count: counter-screen for SNCA expression inhibitors: cell viability; HEK-293-SNCA-luc viability, GF-AFC fluorescence, 24 h; 0.12% of 150,000 active; AID 1671193; Potency, µM (series often up to 57.1 µM), inactives show at the top dose activity change, negative = cytotoxicity, most hits filed as cytotoxic;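 further: potency means the concentration at half of the fitted maximal effect; 0% = DMSO-treated cells and -100% = medium-only wells without cells; nearly all actives have a fitted effect of over 30% in size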
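HEK-293-SNCA-luc cells (1500/well) plated 24 h, then exposed 24 h to a dilution series; GF-AFC added 30 min at 37C, fluorescence 405/540 nm; normalised to medium-only and DMSO wells, Hill fit.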
HEK cytotox: HEK 293 cell cytotoxicity; AID 1345083; HEK 293 viability, ATP luminescence (CellTiter-Glo), 48-72 h; Potency, µM (highest dose often 115 µM), for inactives: top-dose activity change, negative = cytotoxicity, actives largely listed as inhibitors; 6.6% of 94,000 active; further: potency means the concentration at half of the fitted maximal effect; nearly all actives have a fitted effect of over 60% in size
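Pintool-delivered compounds were incubated with HEK 293 cells (250 cells/well) at 37 degree Celsius for 48 or 72 hr. ATP-dependent luminescence (CellTiter-Glo) then reported remaining viable cells.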
SNCA expr inhib: reduces expression of the alpha-synuclein gene; HEK-293 SNCA-luciferase knock-in, luminescence, 24 h; Potency, µM (doses to about 57.2 µM), without a hit: at the top dose activity change, negative = inhibition, hits mostly inhibitors; 0.17% of 140,000 active; AID 1671194;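 further: potency means the concentration at half of the fitted maximal effect; plate controls were DMSO cells for no effect and cell-free wells for full effect; nearly all actives have a fitted effect of over 45% in size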
Luciferase inh: inhibitors of firefly (Photinus pyralis) luciferase. P08659. purified P. pyralis luciferase, luminescence, biochemical. Potency, µM (highest dose often 115 µM), inactives show top-dose activity change, negative = inhibition, usual class: inhibitors. 2.5% of 76,000 active. AID 1347043; further: potency means the concentration at half of the fitted maximal effect; nearly all actives have a fitted effect of over 65% in size
Target sequence (P08659 whole entry, looked up): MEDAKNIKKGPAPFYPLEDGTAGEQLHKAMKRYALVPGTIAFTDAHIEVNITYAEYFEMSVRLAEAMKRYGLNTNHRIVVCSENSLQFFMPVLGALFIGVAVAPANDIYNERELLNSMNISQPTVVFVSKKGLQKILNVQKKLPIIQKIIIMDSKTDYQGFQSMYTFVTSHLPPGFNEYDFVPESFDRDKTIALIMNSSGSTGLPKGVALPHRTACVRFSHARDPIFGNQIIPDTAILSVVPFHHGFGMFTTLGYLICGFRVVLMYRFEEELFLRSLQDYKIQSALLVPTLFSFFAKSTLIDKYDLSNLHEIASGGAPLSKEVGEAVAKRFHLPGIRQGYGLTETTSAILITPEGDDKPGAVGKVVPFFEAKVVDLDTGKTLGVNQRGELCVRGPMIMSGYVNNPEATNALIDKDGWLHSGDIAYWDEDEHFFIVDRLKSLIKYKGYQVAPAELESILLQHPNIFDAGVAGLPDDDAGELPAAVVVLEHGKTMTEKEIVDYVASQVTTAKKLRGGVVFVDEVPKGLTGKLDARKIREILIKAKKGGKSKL
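Purified P. pyralis luciferase (10nM final) in 50mM Tris acetate pH 7.5, 10mM Mg acetate, 0.01% Tween-20, 0.05% BSA with 10uM D-luciferin and 10uM ATP. Compounds titrated qHTS. Luminescence imaged on CCD.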
NIH3T3 tox: NIH 3T3 cell cytotoxicity. NIH 3T3 viability, CellTiter-Glo ATP luminescence, 48-72 h. Potency, µM (titrated, usually from 96.7 µM), for the others: top-dose activity change, negative = cytotoxicity, actives largely listed as inhibitors. 4.3% of 94,000 active. AID 1345082; further: potency means the concentration at half of the fitted maximal effect; nearly all actives have a fitted effect of over 55% in size
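Cytotoxicity was measured by CellTiter-Glo ATP luminescence after 48 or 72 h compound exposure at 37 °C. Mouse NIH 3T3 fibroblasts were seeded at 400 cells/well and dosed by 23 nL pin transfer.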
The depositor's hits bear a star; i = inactive; ? = inconclusive; nt = not tested or not shown; [ ] = another dose, or the depositor's remark. Unless noted, the call rests on the fitted dose curve; in most records, active means well fitted curve in the direction sought with a large enough effect; inconclusive means small, poorly fitted or top-dose-only effect, or another doubt; inactive means no such curve, though single readings can be large; an effect the other way counts as inactive or inconclusive. Unless noted, on the % scale 0 is the no-effect control and ±100 the full control effect. Some of the compounds tested; the hit share may differ from the screen's.

SMILES	IP6K1 inhibitor	SNCA viab count	HEK cytotox	SNCA expr inhib	Luciferase inh	NIH3T3 tox
Cc1cc(C[C@@H]2COC[C@@H]2NC(=O)c2cc(=O)n(-c3ccccc3)[nH]2)on1	10	-24%	0%	21%	9%	-7%
Cc1noc(-c2nc(Cc3ccc(F)cc3)no2)n1	8	4%	10%	-6%	-3%	1%
O=C(NC1CCCCCC1)c1ccc2c(c1)CC(=O)N2Cc1cccc(F)c1	-9	-15%	?	2%	?	-26%
CCOCC(=O)N1CC(c2nc(CCOc3cccc(C)c3)no2)C1	4	-18%	-25%	-3%	-11%	?
Cn1nnc(-c2ccc(-c3ccc(N4C[C@H](CO)OC4=O)cc3F)cn2)n1	5	-6%	nt	nt	nt	nt
CN(C)C(=O)c1nc2sccn2c1-c1ccncc1	6	-3%	4%	-7%	nt	-5%
Cc1ccccc1-c1onc(C)c1C(=O)NCCc1ccc(F)cc1	-10	2%	?	-21%	-1%	-18%
CN1[C@@H](CCC(=O)N2CCOCC2)CNC(=O)[C@@H]2[C@H]1CCN2Cc1cccc(OC(F)(F)F)c1	-2	3%	-37%	9%	-5%	?
Cc1nc(C)c(C(=O)Nc2nn(Cc3ccccc3)c3cccc(OC(C)C)c23)o1	4	-3%	?	-22%	-6%	?
CN1CC(=O)N(C2CCNC2)Cc2c(NCc3cc(F)cc(F)c3)ncnc21 (stereo not drawn)	4	3%	-5%	-22%	nt	2%

Only NIH3T3 tox, IP6K1 inhibitor and HEK cytotox, for some of the entries so far:
structure | NIH3T3 tox | IP6K1 inhibitor | HEK cytotox
O=C(NC1CCCCCC1)c1ccc2c(c1)CC(=O)N2Cc1cccc(F)c1 | -26% | -9 | ?
CCOCC(=O)N1CC(c2nc(CCOc3cccc(C)c3)no2)C1 | ? | 4 | -25%
Cc1nc(C)c(C(=O)Nc2nn(Cc3ccccc3)c3cccc(OC(C)C)c23)o1 | ? | 4 | ?

Taken from the entries so far for reference:
SMILES	IP6K1 inhibitor	SNCA viab count	HEK cytotox	SNCA expr inhib	Luciferase inh	NIH3T3 tox
Cc1cc(C[C@@H]2COC[C@@H]2NC(=O)c2cc(=O)n(-c3ccccc3)[nH]2)on1	10	-24%	0%	21%	9%	-7%
Cc1noc(-c2nc(Cc3ccc(F)cc3)no2)n1	8	4%	10%	-6%	-3%	1%

Continued:
SMILES	IP6K1 inhibitor	SNCA viab count	HEK cytotox	SNCA expr inhib	Luciferase inh	NIH3T3 tox
CCn1c(CO)nnc1C1CC(NC(=O)Cn2cnc3ccccc3c2=O)C1 (stereo not drawn)	44	2%	-3%	8%	-2%	i
C#CCNC(=O)c1nc(-c2ccc([S+](C)(=O)[O-])cc2)c2ccccn12	-20	4%	2%	7%	nt	?
COCCCNC(=O)N1CCCCCCN(C)C(=O)CC1	-5	2%	i	34%[activator]	-5%	1%
COCCCNC(=O)C1Cn2cccc2C(=O)N1Cc1ccccc1 (stereo not drawn)	2	-10%	-18%	-26%	-2%	-9%
CN1CC(=O)N(C2CCCNCC2)Cc2c(NCCc3ccccc3F)ncnc21 (stereo not drawn)	2	-3%	0%	79%[activator]	nt	i
Cc1c(C(C)NC(=O)CN2CC(=O)NC2=O)cnn1-c1ccc(F)cc1F (stereo not drawn)	3	1%	-13%	-19%	1%	-19%
Cc1ccc(CC(=O)NC2CCN(c3cc(-c4ccc(F)cc4)[nH]n3)C2)cc1 (stereo not drawn)	0	-1%	?	0%	1%	?
CCC1(C(=O)N2CCc3ccccc3C2)CCCCC(=O)N1 (stereo not drawn)	2	-8%	5%	6%	10%	i
Cc1cc(OC2CN(Cc3ccc(C#N)cc3)C2)ccc1F	1	-17%[87.6 µM]	?	-12%[87.6 µM]	4%[172 µM]	?
CC(C)OCCCNc1ncnc2c1CN(C1CCC1)C(=O)CN2C	-8	-5%[87.6 µM]	-5%[172 µM]	10%[87.6 µM]	-4%[172 µM]	-12%[138 µM]
COC[C@]1(O)CCN(S(=O)(=O)c2cccc(C(=O)O)c2)CC1(C)C	-5	-1%	i	-2%	7%	i
CCCN1C(=O)Cc2ccccc2C1C(=O)NCc1ccc(Br)cc1 (stereo not drawn)	5	-3%	-12%	44%[activator]	-22%	-6%
CC(=O)N1CCC(N[C@@H]2CO[C@H](CNS(=O)(=O)c3ccccc3)[C@H]2O)CC1	7	3%[87.6 µM]	2%[172 µM]	12%[87.6 µM]	6%[172 µM]	-4%[174 µM]
COc1ccc(CN2CCNC(=O)C2CC(=O)NCc2ccco2)c(F)c1 (stereo not drawn)	4	2%	?	8%	0%	i
CNc1cc(NS(=O)(=O)c2ccc(N)cc2)nc(NC)n1	nt	6%	nt	-14%	nt	nt
Cc1cc(C(=O)N2CCc3ncnc(N4CCOCC4)c3CC2)n(C)n1	5	0%	-3%	-26%	5%	-12%
O=C(CC[C@@H]1CNC(=O)[C@@H]2C[C@H](NC(=O)c3cccc(F)c3)CN12)NC1CC1	14	1%[87.6 µM]	1%[172 µM]	-16%[87.6 µM]	4%[172 µM]	-22%[174 µM]
Cc1n[nH]c(C)c1C(N)C(=O)N(C)Cc1ccnc2ccccc12 (stereo not drawn)	20	-20%	?	-29%	7%	-1%
CCO[C@H]1CN(C(=O)C2(c3ccc(OC)c(OC)c3)CCCC2)C[C@@H]1O	-7	1%	-1%	-17%	8%	4%
CCN(CC)C(=O)c1cc2c(s1)CCC(C(=O)NCc1c(C)nn(C)c1C)C2 (stereo not drawn)	4	0%	?	-12%	2%	-18%
Cc1oc(-c2cc(F)ccc2F)nc1CN1CCN(c2ccccc2)CC1C (stereo not drawn)	0	-5%	?	19%	2%	-9%
O=C(O)C1CN(CC2CC2)CCN(C(=O)c2cc(=O)[nH]o2)C1 (stereo not drawn)	-1	5%	-30%	9%	8%	-7%
Cc1cccc(-c2nc3cnccn3c2NCCC(=O)N2CCCCC2)c1	6	23%	-7%	0%	4%	4%
COc1ccc(C(=O)N2CCc3ccc(C(=O)NCc4cccc(C)c4)cc32)cc1	-5	?	?	7%	-8%	?
O=C(c1ccncc1)N1CCCC(Cc2noc(-c3cnccn3)n2)C1 (stereo not drawn)	6	1%	-3%	1%	-6%	0%
Cc1cccc(OCCc2noc(C3CCCCN3)n2)c1 (stereo not drawn)	39	-2%	-14%	38%[activator]	3%	-15%
Cc1sc2ccn(C)c(=O)c2c1C(=O)NCc1ccccc1Cl	14	1%	?	5%	-13%	3%
CCC(C)C(=O)Nc1c(C(=O)OC)n(CC2CCCO2)c2ncc(NC(C)CO)cc12 (stereo not drawn)	12	15%	?	11%	9%	-2%
COc1ccc(-c2ccnc(N[C@H]3CO[C@H]4[C@@H]3OC[C@H]4OCC(N)=O)n2)cc1	1	0%[87.6 µM]	-8%[172 µM]	14%[87.6 µM]	-5%[172 µM]	3%[174 µM]
CCNC(=O)O[C@@H]1CO[C@H]2[C@@H]1OC[C@@H]2Nc1nccc(-c2ccc(-c3ccccc3)cc2)n1	-5	-25%	10µM*	-21%	-10%	?

Arranged by length of the SMILES (low to high): part of the list above.
SMILES	IP6K1 inhibitor	SNCA viab count	HEK cytotox	SNCA expr inhib	Luciferase inh	NIH3T3 tox
Cc1noc(-c2nc(Cc3ccc(F)cc3)no2)n1	8	4%	10%	-6%	-3%	1%
COCCCNC(=O)C1Cn2cccc2C(=O)N1Cc1ccccc1 (stereo not drawn)	2	-10%	-18%	-26%	-2%	-9%
O=C(c1ccncc1)N1CCCC(Cc2noc(-c3cnccn3)n2)C1 (stereo not drawn)	6	1%	-3%	1%	-6%	0%
Cc1c(C(C)NC(=O)CN2CC(=O)NC2=O)cnn1-c1ccc(F)cc1F (stereo not drawn)	3	1%	-13%	-19%	1%	-19%
COc1ccc(C(=O)N2CCc3ccc(C(=O)NCc4cccc(C)c4)cc32)cc1	-5	?	?	7%	-8%	?

The list continues:
SMILES	IP6K1 inhibitor	SNCA viab count	HEK cytotox	SNCA expr inhib	Luciferase inh	NIH3T3 tox
CCn1cc(CN(C)C(=O)c2ccc3c(c2)C(O)CCCCCN3C)c(C)n1 (stereo not drawn)	13	-22%	?	-16%	-13%	?
COc1ccc(CCNC(=O)c2c(C)noc2-c2cccc(F)c2)cc1	6	-1%	-26%	-21%	-1%	-11%
COCCn1c(=O)c(C(=O)NCc2ccc(OC)c(OC)c2)nc2cccnc21	1	-15%	i	21%	nt	-19%
Cc1nc(C)c(C(=O)NCC2Cn3cccc3C(=O)N2Cc2ccccc2)s1 (stereo not drawn)	-1	5%	-4%	8%	-3%	-8%
COCCN(Cc1cnn(C)c1)C(=O)C1CC2(CCNCC2)CN1 (stereo not drawn)	-14	1%	-4%	-22%	-2%	5%
CNC(=O)[C@@H]1CN(S(=O)(=O)c2cccc(C#N)c2)C[C@H]1C1CCN(C)CC1	11	2%[12.5 µM]	i	-1%	2%	-1%
N#Cc1ccc(CN2CC(Oc3ccc(F)c(F)c3)C2)cc1	-11	6%[87.6 µM]	?	49%[activator][87.6 µM]	nt	?
O=C(Nc1ccc(Cl)nc1)c1ccc2cncn2c1	11	-3%[87.6 µM]	?	-1%[87.6 µM]	-21%[172 µM]	-30%[138 µM]
CS(=O)(=O)NC1CCN(c2nc(-c3cccnc3)nc3c2CNC3)CC1	6	5%	-24%	7%	10%	-8%
C1CCC(c2noc(COCC3CC3)n2)NC1 (stereo not drawn)	-6	2%	2%	-4%	0%	i
Cc1ccc(C(=O)N2CCC3(CC2)[C@H](O)C[C@@H]3OCCO)s1	-2	-4%	1%	6%	11%	2%
O=C(NCc1ccc2c(c1)OCO2)C1Cn2cccc2C(=O)N1Cc1cccnc1 (stereo not drawn)	-18	-23%	-1%	-6%	-2%	-1%
Cc1cc(C(=O)N2CCC(N3C[C@H](O)C[C@H]3C(=O)NC3CCCCC3)CC2)n(C)n1	4	-10%	i	?	-1%	i
Cc1nonc1CC(=O)N1CCC(c2nnc(Cn3cccn3)n2C)CC1	3	5%	-1%	6%	1%	4%
Cc1cccc(C(=O)Nc2c(N3CCCCC3)c(-c3cccc(F)c3)nn2C)c1	19	2%	40µM*	-26%	nt	45µM*
CC1(C(=O)N2CCC(N3CCCC(C(=O)NCc4ccccc4)C3)CC2)CC1 (stereo not drawn)	13	0%	1%	17%	0%	-20%
CCC(C)NC(=O)C1COC2(CCN(C(=O)Cc3ccccc3)CC2)N1C(=O)c1cccc(C)c1 (stereo not drawn)	19	5%	-11%	-10%	7%	-5%
CC(=O)c1c(C)nn(CC(=O)N2CCN(c3ccnc(C)c3)CC2)c1C	-1	6%	4%	-13%	4%	i
CNC(=O)[C@@H]1C[C@@H](NC(=O)c2cccs2)CN1C(=O)Cc1cnccn1	8	3%	1%	4%	-4%	-3%
Cc1ccc(NS(=O)(=O)C2CCS(=O)(=O)C2)cc1 (stereo not drawn)	-3	8%	7%	-1%	9%	1%
CC1=CC2C(CC1OC1OC(CO)C(O)C(O)C1O)C(C)CC(=O)C2C(C)C (stereo not drawn)	-9	0%	nt	nt	nt	nt
CC(C)C(C(=O)N1CCC2(CC1)CN(C)CCN2C)c1ccc(Cl)cc1 (stereo not drawn)	49	7%	-7%	22%	-3%	-12%
